Screening results (PubChem BioAssay)
HPGD inh: HPGD (human) dehydrogenase inhibition | P15428 | purified HPGD, NADH fluorescence kinetic, PGE2 substrate | Potency, µM, without a hit: at the highest dose activity change, negative = inhibition, most hits filed as inhibitors | 150,000 compounds, 4.3% hits; active = well fitted inhibition curve with a large enough effect (not every such curve was filed as active); inconclusive = small, poorly fitted or top-dose-only effect, or another doubt; inactive = no such curve, though single readings can be large or run the other way;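 further: top concentration of the series not given in the record; plate controls included wells without enzyme; inactives centre near -10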
Target sequence (P15428 whole entry, looked up): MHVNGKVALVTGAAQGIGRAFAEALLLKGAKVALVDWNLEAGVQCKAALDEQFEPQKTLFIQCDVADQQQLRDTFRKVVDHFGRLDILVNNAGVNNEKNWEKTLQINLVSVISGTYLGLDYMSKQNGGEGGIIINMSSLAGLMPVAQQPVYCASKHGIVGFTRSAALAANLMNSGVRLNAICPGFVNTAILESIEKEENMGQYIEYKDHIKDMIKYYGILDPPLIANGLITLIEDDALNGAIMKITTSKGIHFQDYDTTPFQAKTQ
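NADH formation kinetics: reaction with 30 uM PGE2 and 1 mM NAD+ (final), 20 nM enzyme, Tris-HCl pH 8 with Tween 20, after 15 min compound preincubation at room temperature. Fluorescence change, last versus first of five reads.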
Starred values were filed as active, the others as inactive; & = joins results of further samples. On the % scale 0 is the no-effect control and ±100 the full control effect; potency means the concentration at half of the fitted maximal effect.

Results for Cc1cc(C)n(CCOC(=O)C2C(C=C(Cl)Cl)C2(C)C)n1 (centres undefined) ?
HPGD inh: -5%

How did CNCC[C@@H](Oc1ccc(C(F)(F)F)cc1)c1ccccc1 do in these assays?
HPGD inh: -12%

Results for CCC(=Nc1ccc(OC)cc1OC)c1c(O)[nH]c(=O)[nH]c1=O ?
HPGD inh: 25µM*

Results for Cc1cccc(C)c1NC(=O)c1cccn(Cc2ccc3c(c2)OC(F)(F)O3)c1=O ?
HPGD inh: -23%

What do the screens show for `O=C(c1ccccc1)c1cn(CC(=O)N2CCCC2)c2ccccc12`?
HPGD inh: -14%

What do the screens show for `O=C(COc1ccccc1)N1CCN(C2CCCC2)CC1`?
HPGD inh: 0%

Results for COC(=O)C1=C(N)Oc2c(c(=O)oc3ccccc23)C1c1cccnc1 (centres undefined) ?
HPGD inh: -11%

What do the screens show for `Cc1ccc(N2C(=O)NC(=O)/C(=C/c3ccc(OC(=O)c4cccs4)cc3)C2=O)cc1`?
HPGD inh: 28µM*

What do the screens show for `CCC(=NCCCN(CC)CC)c1c(O)n(C2CCCCC2)c(=O)[nH]c1=O`?
HPGD inh: -8%

How did CN1CCN(Cc2nc3ccccc3c(=O)[nH]2)CC1 do in these assays?
HPGD inh: -3%

Results for CC12CC(c3ccccc3O1)C(C(=O)OCc1ccccc1)C(=O)N2 (centres undefined) ?
HPGD inh: -6%

How did C[C@H](CN(C)C)C(C#N)(c1ccccc1)c1ccccc1 do in these assays?
HPGD inh: -6%

What do the screens show for `O=C(Nc1cccc(Cl)c1)c1c(O)c2c(n(Cc3ccco3)c1=O)CCCC2`?
HPGD inh: inconclusive

What do the screens show for `CN(C)CCCc1c[nH]c2ccccc12`?
HPGD inh: -8%

How did CC[N+](C)(CC)CCC[n+]1c(-c2ccccc2)c2cc(N)ccc2c2ccc(N)cc21 do in these assays?
HPGD inh: inconclusive

What do the screens show for `CCOC(=O)c1ccc(-n2c(N)c(C(=O)NCC3CCCO3)sc2=S)cc1` (centres undefined)?
HPGD inh: 7.9µM*

Results for Cc1ccc(CN2CCN(CC(=O)N3CCC4(CC3)OCCO4)C2=O)cc1 ?
HPGD inh: -1%

Results for O=c1cccc2n1CC1CC2CN(Cc2c(F)cccc2Cl)C1 (centres undefined) ?
HPGD inh: -3%

How did CCCCP(=O)(O)CCC(=O)O do in these assays?
HPGD inh: -1%

Results for C[C@]12N[C@@H](Cc3ccccc31)c1ccccc12 ?
HPGD inh: -1%&4%&-2%&6%

Results for CC(=O)N1N=C2C3CCN(CC3)C2C1c1cccc2ccccc12 (centres undefined) ?
HPGD inh: -18%

What do the screens show for `N=c1sc2c(n1Cc1ccccc1)CCCC2`?
HPGD inh: -10%

What do the screens show for `CC(=NCCO)c1c(O)n(C)c(=O)n(C)c1=O`?
HPGD inh: -12%

Results for O=C1CN=C(c2ccccc2)c2oc3ccc(Br)cc3c2N1 ?
HPGD inh: -4%

How did Cc1cccc(NC(N)=S)c1 do in these assays?
HPGD inh: -2%

Results for Cc1nonc1-c1nc(-c2nonc2N)n[nH]1 ?
HPGD inh: 14µM*

What do the screens show for `O=c1c(C=Nc2cccnc2Cl)c(O)n(CCCCl)c(=O)n1C1CCCCC1`?
HPGD inh: -6%

How did NC[C@H](CS(=O)(=O)O)c1ccc(Cl)cc1 do in these assays?
HPGD inh: -5%

How did NC(=O)C1(N2CCCCC2)CCN(Cc2ccccc2)CC1 do in these assays?
HPGD inh: -1%

Results for C[C@]12CCC(=O)C=C1CC[C@@H]1[C@@H]2CC[C@]2(C)C(=O)CC[C@@H]12 ?
HPGD inh: -4%&-12%&-11%&-5%

Results for COc1cc2c(cc1OC)[C@@H]1C(=O)c3ccc4oc(C(C)C)cc4c3OC1CO2 (some centres undefined) ?
HPGD inh: inconclusive

Results for CCCCOC(=O)C1=C(N)OC2=C(C(=O)CCC2)[C@]12C(=O)N(C)c1ccccc12 ?
HPGD inh: 2%

How did CCCCCCN=C(C)c1c(O)n(Cc2ccccc2)c(=O)[nH]c1=O do in these assays?
HPGD inh: -26%

Results for CNCCc1ccc(O)c(O)c1 ?
HPGD inh: inconclusive

How did C=C(Cl)CCl do in these assays?
HPGD inh: -2%

Results for CC1(C)C(C(=O)NCc2ccco2)C1(C)C ?
HPGD inh: -23%

How did CC(=O)OCC(N)C(=O)c1ccccc1 (centres undefined) do in these assays?
HPGD inh: -1%

How did CN(C)C1C(=O)C(C(N)=O)C(=O)C2(O)C(=O)C3C(=O)c4c(O)cccc4C(C)(O)C3C(O)C12 (centres undefined) do in these assays?
HPGD inh: inconclusive

How did O=C(CCC(=O)N1CCC2(CC1)OCCO2)Nc1nnc(C(F)(F)F)s1 do in these assays?
HPGD inh: -2%

What do the screens show for `C=CCn1c(O)c(C(C)=NCCCN2CCOCC2)c(=O)[nH]c1=O`?
HPGD inh: -6%

Fetched one by one from the list above (3):
Results for CNCCc1ccc(O)c(O)c1 ?
HPGD inh: inconclusive

Results for C[C@]12CCC(=O)C=C1CC[C@@H]1[C@@H]2CC[C@]2(C)C(=O)CC[C@@H]12 ?
HPGD inh: -4%&-12%&-11%&-5%

Results for Cc1nonc1-c1nc(-c2nonc2N)n[nH]1 ?
HPGD inh: 14µM*

(list continues)
Results for O=C(O)C[SH+]CC(=O)O.O=C(O)C[SH+]CC(=O)O.[Cu] ?
HPGD inh: -5%

Results for CNCCC(Oc1ccc(C(F)(F)F)cc1)c1ccccc1 (centres undefined) ?
HPGD inh: inconclusive

How did CC(C)NC(=O)Cn1cc(C(=O)c2ccccc2F)c2ccccc21 do in these assays?
HPGD inh: -8%

How did Cc1cccc(-n2c(/C=C/c3ccc([N+](=O)[O-])o3)nc3ccccc3c2=O)c1 do in these assays?
HPGD inh: -30%

Results for COc1cc2c(cc1OC)-c1c3c(cc4c1[C@@H](C2)N(C)CC4)OCO3 ?
HPGD inh: 19%

Results for CCC(C)C(=O)c1c(O)c(C)c2oc3c(C)c(O)c(C(=O)C(C)CC)c(O)c3c2c1O (centres undefined) ?
HPGD inh: -6%

How did COc1ccccc1N1CCN(Cc2cccc(OC)c2O)CC1 do in these assays?
HPGD inh: -5%

Results for CC1(C)C2([N+](=O)[O-])CNCC1([N+](=O)[O-])CNC2 ?
HPGD inh: 1%

What do the screens show for `O=P(C(c1ccc2c(c1)OCO2)N1CCOCC1)(N1CCOCC1)N1CCOCC1` (centres undefined)?
HPGD inh: -12%

How did Clc1ccc2c(c1)C(c1ccccc1Cl)=NCc1nncn1-2 do in these assays?
HPGD inh: -2%

What do the screens show for `CCOC(=O)C1CCN(C(C)C(=O)c2c(C)[nH]c3cc(C)ccc23)CC1` (centres undefined)?
HPGD inh: -13%

What do the screens show for `C[C@@]12CCC(=O)C[C@@H]1CC[C@@H]1[C@@H]2CC[C@]2(C)C(=O)CC[C@@H]12`?
HPGD inh: 0%

Results for Oc1cc2c(cc1CN1CCN(c3ccccc3)CC1)CCC2 ?
HPGD inh: -2%

Results for O=C(c1cc([N+](=O)[O-])ccc1N1CCNCC1)N1CCOCC1 ?
HPGD inh: -24%

Results for COc1ccc(NC(=O)CN2C3CCC2CC(O)(c2cccnc2)C3)cc1OC (centres undefined) ?
HPGD inh: -8%

What do the screens show for `Cc1cccc(N2C(=O)NC(=O)/C(=C\c3cnc(-c4ccccc4)nc3)C2=O)c1`?
HPGD inh: 25µM*

What do the screens show for `CCOP(=S)(NN(Cc1ccccc1)C(=O)c1ccccc1)OCC`?
HPGD inh: -11%

How did CCn1c(=O)n(CC(=O)N2CCC3(CC2)OCCO3)c(=O)c2ccccc21 do in these assays?
HPGD inh: -20%

What do the screens show for `CCCCn1c(O)c(C=NCCCN(CC)CC)c(=O)[nH]c1=O`?
HPGD inh: -7%

How did N=Cc1c(O)n(-c2cccc(Cl)c2)c(=O)[nH]c1=O do in these assays?
HPGD inh: -9%

What do the screens show for `CN(C)C(=O)Oc1ccc(C(=O)c2ccccc2)cc1`?
HPGD inh: -20%

How did O=C(NC(=O)c1c(F)cccc1F)Nc1cc(Cl)c(OC(F)(F)C(F)C(F)(F)F)cc1Cl (centres undefined) do in these assays?
HPGD inh: -22%

How did CCC[C@@](C)(COC(N)=O)COC(=O)NC(C)C do in these assays?
HPGD inh: 2%

How did Cc1cc(/C=C2\C(=O)NC(=O)N(c3ccc(Cl)cc3)C2=O)c(C)n1-c1sc2c(c1C#N)CCCC2 do in these assays?
HPGD inh: 10µM*

How did CCc1cccc(C)c1N(C(=O)CCl)C(C)COC (centres undefined) do in these assays?
HPGD inh: -7%

What do the screens show for `CCNC(=O)O/N=C(\C)c1sc(-c2ccccc2)nc1C`?
HPGD inh: inconclusive

What do the screens show for `CC1(C)NCCN2C(=O)CSC21` (centres undefined)?
HPGD inh: inconclusive

Results for CCN1c2nc3ccccn3c(=O)c2CC2(C(=O)N(C)C(=O)N(C)C2=O)C1C (centres undefined) ?
HPGD inh: -24%

Results for COC(=O)C1=Nc2ccccc2/C1=C\c1c(O)n(-c2ccc(Br)cc2)c(=O)[nH]c1=O ?
HPGD inh: 18µM*

How did O=C(CC[N+](=O)[O-])OCC1OC(O)C(OC(=O)CC[N+](=O)[O-])[C@@H](OC(=O)CC[N+](=O)[O-])C1OC(=O)CC[N+](=O)[O-] (some centres undefined) do in these assays?
HPGD inh: -10%

Results for O=c1[nH]c(=O)n(Cc2ccco2)c(O)c1C=NCc1cccs1 ?
HPGD inh: -16%

What do the screens show for `CCCCn1c(C)c(C(=O)OCC)c2c(CN3CCOCC3)c(O)ccc21`?
HPGD inh: 1%

What do the screens show for `NC(N)=NOCCC(N)C(=O)O` (centres undefined)?
HPGD inh: -18%&-8%

What do the screens show for `CP(=O)(O)C1=CCNCC1`?
HPGD inh: -14%

How did CC(C)Cc1[nH]c(=O)c(C#N)c2c1CCC2 do in these assays?
HPGD inh: inconclusive

Results for COC(=O)NC(=S)Nc1ccccc1NC(=S)NC(=O)OC ?
HPGD inh: -15%

What do the screens show for `O=C(C1c2ccccc2C(=O)N2CCc3ccccc3C12)N1CCC2(CC1)OCCO2` (centres undefined)?
HPGD inh: -1%

Results for O=C1C=C2C=CC3C[C@@]2(O1)C1CCCCN31 (some centres undefined) ?
HPGD inh: 0%

What do the screens show for `CSc1ccc(C(=O)C(C)(C)N2CCOCC2)cc1`?
HPGD inh: -7%

What do the screens show for `CC(C)NS(=O)(=O)c1ccc(OCC(=O)N2CCN(Cc3ccccc3)CC2)c(Cl)c1`?
HPGD inh: -5%

Among those listed so far, 7 contain a furan ring, fused or not:
What do the screens show for `O=C(Nc1cccc(Cl)c1)c1c(O)c2c(n(Cc3ccco3)c1=O)CCCC2`?
HPGD inh: inconclusive

Results for O=C1CN=C(c2ccccc2)c2oc3ccc(Br)cc3c2N1 ?
HPGD inh: -4%

Results for COc1cc2c(cc1OC)[C@@H]1C(=O)c3ccc4oc(C(C)C)cc4c3OC1CO2 (some centres undefined) ?
HPGD inh: inconclusive

Results for CC1(C)C(C(=O)NCc2ccco2)C1(C)C ?
HPGD inh: -23%

How did Cc1cccc(-n2c(/C=C/c3ccc([N+](=O)[O-])o3)nc3ccccc3c2=O)c1 do in these assays?
HPGD inh: -30%

Results for CCC(C)C(=O)c1c(O)c(C)c2oc3c(C)c(O)c(C(=O)C(C)CC)c(O)c3c2c1O (centres undefined) ?
HPGD inh: -6%

Results for O=c1[nH]c(=O)n(Cc2ccco2)c(O)c1C=NCc1cccs1 ?
HPGD inh: -16%

Remaining list, next part:
Results for Cc1ncc([N+](=O)[O-])n1CCN=[N+]=[N-] ?
HPGD inh: -1%

How did Clc1ccc(C2=CCC[C@H]3CC[C@@H]2N3)cn1 do in these assays?
HPGD inh: -14%

Results for O=C(COc1ccc2ccccc2c1)N1CCN(Cc2ccncc2)CC1 ?
HPGD inh: -7%

Results for Nc1ccc(Cc2ccc(N)cc2)cc1 ?
HPGD inh: -16%

How did CCN1CCN(c2nc3ccccc3s2)CC1 do in these assays?
HPGD inh: -3%

Results for O=c1c2ccccc2nc(CN2CCOCC2)n1-c1ccccc1F ?
HPGD inh: 1%

How did C=CCn1c(O)c(C(CC)=NCCc2ccccc2)c(=O)[nH]c1=O do in these assays?
HPGD inh: -15%

What do the screens show for `Cc1cccc(N2C(=O)NC(=O)/C(=C\c3cc(C)n(-c4sc5c(c4C#N)CCCC5)c3C)C2=O)c1C`?
HPGD inh: 4µM*

What do the screens show for `CCC(=O)CC(c1ccccc1)c1c(O)c2ccccc2sc1=O` (centres undefined)?
HPGD inh: -13%

How did O=C1CC(C(=O)N2CCC3(CC2)OCCO3)CN1CCc1ccccc1 (centres undefined) do in these assays?
HPGD inh: 1%

How did CCc1ccccc1N1C(=O)NC(=O)/C(=C\c2cc(C)n(C)c2C)C1=O do in these assays?
HPGD inh: 0%

Results for O=C(CN1CCCCC1)c1cccc(Br)c1 ?
HPGD inh: -2%

How did CCCCCCn1c(O)c(C=NC2CCCCC2N)c(=O)[nH]c1=O (centres undefined) do in these assays?
HPGD inh: -9%

Results for CCNC(=O)NC(=O)C(C)OC(=O)c1c(C)nn(Cc2ccccc2Cl)c1Cl (centres undefined) ?
HPGD inh: -8%

Results for O=c1c2ccccc2nc(-c2ccccc2)n1-c1cccnc1 ?
HPGD inh: -7%

Results for COc1ccc(C)cc1NC(=O)c1c(C)nn(Cc2ccccc2)c1Cl ?
HPGD inh: -14%

Results for O[C@H](CN1CC1)[C@@H](O)CN1CC1 ?
HPGD inh: -1%

What do the screens show for `CCN1C[C@]2(C)CC[C@H](O)[C@@]34C5C[C@@H]6[C@@H](OC)C[C@@](O)(C5[C@H]6O)[C@@H](CC23)[C@@H]14` (some centres undefined)?
HPGD inh: 3%

What do the screens show for `O=S1OCC2C(CO1)C1(Cl)C(Cl)=C(Cl)C2(Cl)C1(Cl)Cl` (centres undefined)?
HPGD inh: -4%&-2%

Results for CCCn1nc2ccccc2c1P(=O)(N1CCOCC1)N1CCOCC1 ?
HPGD inh: -1%

How did CN1CCN(c2ccc(N)cc2)CC1 do in these assays?
HPGD inh: -13%

Some of the compounds tested (hit frequency here may not be typical).
